Compound activity (PubChem)
E coli growth: inhibitors of Escherichia coli growth | OD600, 23 h; stronger effect = lower value | OD600 absorbance (test concentration not listed) | actives 0.21% (n = 330,000);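 active = OD600 absorbance below the run mean of sample wells minus 3.6 SD, in any replicate, cut at about 0.56 in these data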;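 also: stock transfer was 300 nL into about 60 µL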
HNF4A DNA FP: change in binding of human HNF4 alpha to DNA; activity change, % at 10 µM; actives 0.3% (n = 360,000); P41235; HNF4a-FITC DNA binding, fluorescence polarization, 1 h; in the data active = activity change above about 30%, passing the limit was not always enough;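 also: controls were the assay level and a saturating level of protein; the project sought stronger binding though the title names inhibitors; some compounds called inactive have numbers as strong as hits; positive values seem to mean higher polarization but the record does not say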
AF4-AF9 inh: blocks AF4 peptide binding to human AF9; inhibition, % at 10 µM; AlphaScreen, biotin-AF4 peptide binding to FLAG-AF9; actives 0.47% (n = 350,000);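 active = every replicate reaching a set inhibition limit, whatever the replicate mean, cut at about 25% in these data; inconclusive = mean inhibition reaches that limit but some replicates miss it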;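 also: 0% = plate neutral control median and 100% = total signal loss; the record names both 10 and 1 µM as test concentration; the first replicate is given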
Target sequence (P42568 whole entry, looked up): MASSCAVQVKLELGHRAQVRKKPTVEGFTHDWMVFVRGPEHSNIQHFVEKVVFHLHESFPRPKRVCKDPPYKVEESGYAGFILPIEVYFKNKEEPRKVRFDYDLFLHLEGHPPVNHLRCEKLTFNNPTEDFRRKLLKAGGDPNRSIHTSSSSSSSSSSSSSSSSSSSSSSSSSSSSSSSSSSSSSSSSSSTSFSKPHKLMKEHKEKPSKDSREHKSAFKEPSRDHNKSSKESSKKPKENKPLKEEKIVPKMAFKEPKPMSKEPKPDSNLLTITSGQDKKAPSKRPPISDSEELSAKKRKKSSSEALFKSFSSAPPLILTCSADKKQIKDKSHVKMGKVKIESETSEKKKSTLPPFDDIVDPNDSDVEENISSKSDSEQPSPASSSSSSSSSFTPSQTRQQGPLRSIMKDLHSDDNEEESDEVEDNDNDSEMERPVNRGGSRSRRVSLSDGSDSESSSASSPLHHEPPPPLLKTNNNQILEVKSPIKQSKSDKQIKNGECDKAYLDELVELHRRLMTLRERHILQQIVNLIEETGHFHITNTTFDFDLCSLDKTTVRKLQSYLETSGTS
ALR H2O2 inh: inhibitors of human sulfhydryl oxidase ALR. inhibition, % (test concentration not listed). actives 3.8% (n = 290,000). purified ALR, DTT oxidation, H2O2 HRP-luminol luminescence. P55789. AID 485317;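 active = mean and each replicate at 75% or more; inconclusive = only one of the two met; inactive = neither met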;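 also: stock transfer was 7.5 nL into about 7.5 µL; 0% = neutral wells and 100% = wells with inactivated enzyme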
Target sequence (P55789 whole entry, looked up): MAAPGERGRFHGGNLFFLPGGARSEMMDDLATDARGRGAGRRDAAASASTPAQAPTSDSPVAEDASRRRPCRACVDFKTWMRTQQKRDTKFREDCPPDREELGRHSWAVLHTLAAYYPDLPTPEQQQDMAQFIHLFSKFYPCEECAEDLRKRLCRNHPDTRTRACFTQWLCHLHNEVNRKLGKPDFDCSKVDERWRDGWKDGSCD
rRNA inh HTS: selective bacterial rRNA inhibition in E. coli | E. coli WT GFP vs humanized-ribosome RFP mutants, fluorescence, 24 h; stronger effect = lower value; DMSO median 0, no signal -100 | GFP signal change (wild-type ribosome), % (no concentration beside the values) | actives 1.6% (n = 350,000) | AID 720706;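 active = significant combined selectivity score with lowered wild-type GFP, culture density cut under 30%, mutant RFP and density less affected; inactive = any of these conditions unmet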; also: one replicate is shown; some compounds called inactive have numbers as strong as hits
Vif TR-FRET: HIV-1 Vif–A3G interaction blockers – biochemical, TR-FRET, GST-Vif 1-94, biotin-A3G peptide, dose response retest, primary screen (AID 1117319); TR-FRET GST-Vif / biotin-A3G peptide binding; higher % means a stronger effect; test concentration not given here; strong numbers were not always called active; one-dose inhibition, %; IC50 in µM for titrated hits; actives 0.57% (n = 260,000);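 active = above the screen mean plus three standard deviations and confirmed in dose response; inconclusive = results disagree or hit not tested in dose response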;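 also: Vif residues 1-94 fused to GST binding biotinylated APOBEC3G peptide 110-148; 0% = full assay without inhibitor and 100% = GST in place of GST-Vif; retest series ran down from 100 µM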
FGF22 binding: shifts melting point of recombinant human FGF22; recombinant FGF22 thermal shift, SYPRO orange fluorescence; percent of sucrose octasulfate shift, DMSO zero; Q9HCT0; AID 651658; actives 1.5% (n = 340,000); calls only at 9.99 µM;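 active = melting point raised past a set limit in the mean and every replicate; inconclusive = no clear call; three in four hits are not shown here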
Target sequence (Q9HCT0 whole entry, looked up): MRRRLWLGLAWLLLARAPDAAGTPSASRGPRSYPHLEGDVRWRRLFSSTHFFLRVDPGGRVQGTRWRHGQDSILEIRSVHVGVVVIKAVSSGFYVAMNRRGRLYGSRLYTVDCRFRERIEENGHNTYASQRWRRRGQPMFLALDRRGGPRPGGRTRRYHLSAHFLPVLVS
rRNA inh HTS OD600: recorded beside rRNA inh HTS, whose call it bears; OD600 change, %; measured here: OD600 growth;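 optical density of the mix in the first replicate; 0 = DMSO median and -100 = no signal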
rRNA inh HTS RFP: second read-out of rRNA inh HTS, no call of its own (marks repeat the call); RFP signal change, %; measured here: RFP humanized mutant strains;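 first replicate; 0 = DMSO median and -100 = no signal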
Numbers without * were called inactive; i = inactive; u = inconclusive; x = no result given; & = joins results of further samples. This is a subset; count on the stated rates, not on these rows.

Order of values – E coli growth	rRNA inh HTS	rRNA inh HTS RFP	rRNA inh HTS OD600	HNF4A DNA FP	AF4-AF9 inh	FGF22 binding	ALR H2O2 inh	Vif TR-FRET
> C[C@H]1CCCCO[C@H](CN(C)Cc2ccc3c(c2)OCO3)[C@@H](C)CN([C@@H](C)CO)C(=O)c2cc(NC(=O)Nc3ccc4c(c3)OCO4)ccc2O1
  x	-12	32	-46	x	29*	i	x	x
> CN(C(=O)c1cccc(NC(=O)Cc2ccc(NC(=O)C3CCN(C(=O)CCc4ccccc4)CC3)cc2)c1)C1CCC1
  0.7	-6	-7.8	-8	1.8	0.4	i	x	-1%
> CC(C)Sc1nc2sc(-c3ccccc3)cc2c(=O)n1N
  0.7	x	x	x	1.8	x	x	6	5%
> CC(=O)N1CC2(C1)[C@H](c1ccc(-c3ccccc3C)cc1)[C@H](CO)N2C(=O)CC1CC1
  x	-1	3.6	-2	x	-0.8	i	x	x
> COc1ccc(OCC(=O)Nc2c(C(=O)N3CCN(C)CC3)oc3ccccc23)cc1
  0.71	-3	-1.0	5	1.9	5.1	i	2	-4%
> COc1nc(C)nc(NC(=O)NS(=O)(=O)c2ccc(C)cc2)n1
  0.77	x	x	x	-2.6	x	x	-5	-7%
> COc1ccc(C(=O)Nc2cccc(C(=O)NCc3ccco3)c2)cc1
  0.69	-13	-1.3	-3	1.2	6.7	i	1	-6%
> COc1ccc(CCNC(=O)c2ccc(S(=O)(=O)N3CCCCC3)cc2)cc1
  0.66	5	0.3	13	-5.7	-1.4	i	x	2%
> Cc1cc(C)n2nc(SCC(=O)N/N=C/c3ccccc3F)nc2n1
  x	-6	-7.2	-1	-2.3	-1.6	i	-4	6%
> Cc1noc(C)c1NC(=O)N(C)C[C@H]1Oc2ccc(NC(=O)NC(C)C)cc2CC(=O)N([C@H](C)CO)C[C@H]1C
  x	6	0.3	12	x	0.1	i	x	x
> C[C@@H]1CN([C@@H](C)CO)S(=O)(=O)c2ccc(C#C[C@@H](C)O)cc2O[C@H]1CN(C)Cc1cccnc1
  x	-2	-2.0	-4	x	0.0	i	x	x
> Cc1ccc2nc3c(cc(C(=O)NC4CCCC4)c(=N)n3CCCn3ccnc3)c(=O)n2c1
  0.71	x	x	x	x	x	x	-9	14%
> COc1cc2oc(=O)cc(CN3CCN(c4ccccc4OC)CC3)c2cc1Cl
  x	2	0.5	8	-1.7	-1.7	i	x	x
> CC(=O)C(Sc1nccc(-c2cccs2)n1)C(C)=O
  0.71	-12	5.4	-10	6.0	0.5	i	98*	0%
> O=C1COc2ccc(S(=O)(=O)NCCc3ccccc3)cc2N1
  0.7	-3	-0.2	4	6.3	-2.4	i	x	x
> Cc1ccc(S(=O)(=O)N(CC(=O)N(C)C)c2cccc([N+](=O)[O-])c2)cc1
  0.71	16	-0.4	9	3.7	-2.2	i	1	-9%
> CCc1nnc(NC(=O)c2nc(S(=O)(=O)Cc3cccc(C)c3)ncc2Cl)s1
  x	4	-2.9	-1	2.5	-9.9	i	8	x
> CCOC(=O)CC(=O)CSc1nnc2c(n1)[nH]c1ccccc12
  0.7	x	x	x	0.5	x	x	6	-1%
> COc1cc2c(C(=O)NCc3ccc4c(c3)OCO4)cn(C)c(=O)c2cc1OC
  0.77	x	x	x	1.0	x	x	25	-5%
> Cn1c(=O)c(C(=O)CCl)c(N)n(CC2CC2)c1=O
  0.67	x	x	x	0.5	x	x	18	u
> CCOC(=O)c1c(C)oc2ccc(OC(=O)c3cccs3)cc12
  0.71	-20	-3.0	-21	2.3	-5.1	i	-1	-8%
> C[C@H](CO)N1C[C@H](C)[C@H](CN(C)CC2CC2)Oc2ccc(NC(=O)CCN3CCOCC3)cc2C1=O
  0.72	2&11	-2.0&-0.6	6&5	2.9	-1.2&0.9	i	x	1%
> O=C(O)c1ccc(NC(=O)c2ccco2)c(NC(=O)c2ccco2)c1
  0.7	6	-2.9	1	1.7	-0.9	i	x	x
> COC(=O)c1cc(OC)c(OC)cc1NC(=S)N1CCCC(CO)C1 (stereo not drawn)
  0.67	x	x	x	-0.2	x	x	-1	-8%
> Clc1ccc(-c2csc(N/N=C/c3ccc4c(c3)OCO4)n2)cc1
  x	-4	-1.9	-1	2.6	-12	i	-30	x
> COc1ccccc1NS(=O)(=O)c1cc(NC(=O)C2CCC2)ccc1N1CCCCC1
  0.72	1	-1.2	-14	-1.0	-8.3	i	-2	30%
> CCN(CC(=O)Nc1ccc2c(c1)OCCO2)C(=O)/C=C/c1ccc([N+](=O)[O-])cc1
  0.65	-12	1.0	13	-0.2	0.4	i	-3	-8%
> Cc1nc2nc(-c3ccc(F)cc3)cn2nc1C
  0.65	6	4.9	6	1.6	-2.7	i	-10	x
> Cc1noc(C)c1NC(=O)Nc1ccc2c(c1)C(=O)N([C@H](C)CO)C[C@H](C)[C@@H](CN(C)C(=O)C1CCCCC1)OCCCC[C@@H](C)O2
  x	2	1.3	0	x	-2.6	i	x	x
> CC(C)N1CCN(Cc2ccncc2)CC1CCO (stereo not drawn)
  0.71	18	0.6	3	-3.0	-1.0	x	-4	3%

AF4-AF9 inh: what is marked active above.
Order of values – E coli growth	rRNA inh HTS	rRNA inh HTS RFP	rRNA inh HTS OD600	HNF4A DNA FP	AF4-AF9 inh	FGF22 binding	ALR H2O2 inh	Vif TR-FRET
> C[C@H]1CCCCO[C@H](CN(C)Cc2ccc3c(c2)OCO3)[C@@H](C)CN([C@@H](C)CO)C(=O)c2cc(NC(=O)Nc3ccc4c(c3)OCO4)ccc2O1
  x	-12	32	-46	x	29*	i	x	x

Remaining list, next part:
Order of values – E coli growth	rRNA inh HTS	rRNA inh HTS RFP	rRNA inh HTS OD600	HNF4A DNA FP	AF4-AF9 inh	FGF22 binding	ALR H2O2 inh	Vif TR-FRET
> COC(=O)[C@@H]1C[C@@]2(O)[C@H](O)[C@H](O)[C@H](O)C[C@H]2N1CC(c1ccccc1)c1ccccc1
  x	6	4.3	5	-1.0	0.9	i	x	-2%
> CCOc1ccc(OCCCC(=O)N(CC)CC(=O)Nc2c(F)cccc2F)cc1
  0.64	-1	-5.3	-1	0.6	-4.7	i	-5	-1%
> CCNC(=O)Nc1ccc2c(c1)C(=O)N(C)[C@@H]1CC[C@@H](CC(=O)NCCOC)O[C@@H]1CO2
  x	4	-0.3	1	x	-1.7	i	x	x
> Nc1c(-c2cccc([N+](=O)[O-])c2)nc2ccccn12
  0.66	x	x	x	-3.9	x	x	75	28%
> COc1cc(OC)c(C2C(C(=O)N3CCOCC3)=C(C)NC3=C2C(=O)CC(C)(C)C3)cc1OC (stereo not drawn)
  0.7	x	x	x	-0.5	x	x	-10	-1%
> S=c1[nH]cnc2scc(-c3ccc(Br)cc3)c12
  0.71	-9	-3.1	-8	0.3	-1.0	i	-8	-8%
> C[C@@H]1CN([C@@H](C)CO)C(=O)c2cc(NS(C)(=O)=O)ccc2O[C@@H](C)CCCCO[C@H]1CN(C)C(=O)Nc1ccc(F)cc1
  x	0	-1.6	7	x	-1.6	i	x	x
> CCOCCn1c(N(C)Cc2ccccc2)nc2c1c(=O)[nH]c(=O)n2C
  0.69	x	x	x	2.6	x	x	x	7%
> CC1(c2ccccc2)NC(=O)N(CC(=O)Nc2ccc(N3CCOCC3)cc2)C1=O (stereo not drawn)
  0.65	4	-0.7	0	-1.2	3.2	i	19	x
> COC(=O)c1ccccc1C(=O)N1CCCC(CNC(=O)c2ccc(F)cc2)C1 (stereo not drawn)
  0.67	5	-0.8	7	-5.7	0.0	i	-1	x
> O=C(C[C@@H]1C[C@H]2c3cc(NC(=O)NC4CCCC4)ccc3O[C@H]2[C@@H](CO)O1)NCc1ccccc1
  x	4	0.8	-2	x	-0.4	i	x	x
> CCOc1ccc(C2C(C(=O)Nc3ccccc3)=C(C)N=c3s/c(=C/c4cccc(OCC(=O)O)c4)c(=O)n32)cc1 (stereo not drawn)
  x	5	-3.9	8	-1.1	5.4	i	62	10%
> COc1ccc(C2CCCN2C(=S)Nc2cccc(Cl)c2C)cc1OC (stereo not drawn)
  0.7	-20	-9.1	-8	0.3	-1.7	i	-10	-2%
> c1ccc(CNc2nc3ccccc3n3cnnc23)cc1
  0.76	11	1.5	13	4.7	1.7	i	-6	-8%
> O=S(=O)(Nc1ccccc1Br)c1cccs1
  0.7	1	0.0	-4	-2.4	-3.2	x	3	x
> Cc1ccsc1/C=N/Nc1ccc(C(=O)O)cc1
  x	-14	-5.4	-19	3.8	-24	i	x	-2%
> CN1CCC(N(C)C(=O)c2ccccc2Nc2ccc(SC(F)F)cc2)CC1
  0.69	x	x	x	0.2	x	x	56	7%
> CCCCn1cnc2c(sc3nc4c(cc32)CSC(C)(C)C4)c1=O
  x	x	x	x	-0.2	x	x	-1	-5%
> Cc1cc(OC(=O)c2ccc(S(=O)(=O)N(C)C)cc2)c([N+](=O)[O-])c(=O)[nH]1
  0.69	2	-1.0	4	0.7	-1.4	i	7	x
> O=C(Cc1ccc(Br)cc1)c1ccc(O)cc1O
  0.64	x	x	x	-2.0	-1.4	x	48	5%
> C[C@@H]1CCCCO[C@H](CN(C)Cc2ccncc2)[C@@H](C)CN([C@H](C)CO)C(=O)c2cc(NC(=O)C3CCCCC3)ccc2O1
  x	1	-1.0	4	x	-0.1	i	x	x
> Cc1ccc(S(=O)(=O)Nc2cccc3c2O[C@@H](CN(C)S(=O)(=O)c2ccccc2)[C@H](C)CN([C@H](C)CO)C3=O)cc1
  x	-1	0.0	2	x	-0.1	i	x	x
> O=C(C[C@@H]1C[C@H]2c3cc(NC(=O)NC4CCCCC4)ccc3O[C@H]2[C@H](CO)O1)NCc1ccccn1
  x	6	3.4	16	x	21	i	x	x
> CN(CC(=O)NCc1ccncc1)S(=O)(=O)c1cc(Cl)ccc1Cl
  0.68	7	-0.4	11	1.0	-0.3	i	x	x
> CC1(C)Cc2nc3oc4c(N5CCOCC5)ncnc4c3cc2CO1
  0.68	x	x	x	3.4	x	x	-2	u
> CS(=O)(=O)N(CCc1ccccc1)CC(=O)N1CCN(Cc2ccc3c(c2)OCO3)CC1
  0.72	x	x	x	1.7	x	x	-18	4%
> CCOC(=O)C1CCN(C(=O)Cn2cccc2C(=O)c2ccccc2)CC1
  0.68	x	x	x	-1.5	x	x	-11	-5%
> COc1ccc(C2c3c(ccc4ccccc34)Oc3ncn4nc(CO/N=C/c5ccccc5)nc4c32)cc1 (stereo not drawn)
  x	x	x	x	-6.0	x	x	-5	3%
> COC(=O)c1ccc(NCC(=O)N2CCCCCC2)cc1
  0.63	x	x	x	x	x	x	-5	-8%
> Cc1cc(=O)[nH]c(SCCCOc2ccc(F)cc2)n1
  0.72	x	x	x	-2.0	x	x	x	-1%
> CC(=O)C1=C(C)OC(N)=C(C#N)C1c1ccncc1 (stereo not drawn)
  0.74	x	x	x	-2.7	x	x	-6	6%
> C=CCn1c(SCn2nnc3ccccc3c2=O)nnc1-c1ccc(F)cc1
  0.69	x	x	x	-1.3	x	x	1	15%

Arranged by the number under HNF4A DNA FP (high to low): 3 of the compounds above.
molecule	HNF4A DNA FP
COc1cc(OC)c(C2C(C(=O)N3CCOCC3)=C(C)NC3=C2C(=O)CC(C)(C)C3)cc1OC (stereo not drawn)	-0.5
COC(=O)[C@@H]1C[C@@]2(O)[C@H](O)[C@H](O)[C@H](O)C[C@H]2N1CC(c1ccccc1)c1ccccc1	-1.0
C=CCn1c(SCn2nnc3ccccc3c2=O)nnc1-c1ccc(F)cc1	-1.3
